Screens: PubChem BioAssay, several laboratories
A1 inh: caspase 3/7 activation in MEF A1-2A-BIM cells, primary screen, A1 inhibitor project, cell-based, luminescence, HTS | actives 0.066% (n = 330,000) | caspase activation, % (concentration not given with the values) | Caspase-Glo 3/7 luminescence, 3 h; percent of clofoctol response, vehicle zero;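 active = over half of replicate activation scores above 10%, or exactly half above 10 with the replicate mean above 10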;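 also: wells of about 30 µL received 50 nL stock; many hits fall short of the cut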
rRNA inh HTS: reduced GFP signal of wild-type E. coli, primary screen, bacterial rRNA inhibitor project, GFP/RFP fluorescence, OD600, single point. actives 1.6% (n = 350,000). E. coli WT GFP vs humanized-ribosome RFP mutants, 24 h; stronger effect = lower value; DMSO median 0, no signal -100. GFP signal change (wild-type ribosome), % (no concentration beside the values);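 active = significant combined selectivity score with lowered wild-type GFP, culture density cut under 30%, mutant RFP and density less affected; inactive = any of these conditions unmet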; also: one replicate is shown; some compounds called inactive have numbers as strong as hits
UCH37 DUB inh: inhibitors of human UCH37 deubiquitinase, primary screen, biochemical, Ub-AMC cleavage, fluorescence; purified proteasome/UCH37; actives 0.33% (n = 330,000); AID 588478, 2011; inhibition, % (test concentration not listed);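 active = mean of two replicates above 20%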;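 also: 0% = compound-free wells with enzyme and 100% = wells lacking proteasome; stock transfer was 100 nL into about 20 µL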
Target sequence (Q9Y5K5 whole entry, looked up): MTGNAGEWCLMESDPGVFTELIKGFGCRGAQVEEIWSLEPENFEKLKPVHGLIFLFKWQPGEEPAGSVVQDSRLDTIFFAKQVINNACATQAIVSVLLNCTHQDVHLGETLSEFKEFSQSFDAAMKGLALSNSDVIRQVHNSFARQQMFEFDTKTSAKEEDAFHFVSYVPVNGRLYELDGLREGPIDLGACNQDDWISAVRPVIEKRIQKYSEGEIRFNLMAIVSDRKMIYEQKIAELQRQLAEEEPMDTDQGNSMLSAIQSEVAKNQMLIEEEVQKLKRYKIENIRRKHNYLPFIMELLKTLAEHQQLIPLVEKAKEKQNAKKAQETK
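Reagent: Ub-AMC substrate; assay system: Proteasome-associated human UCH37 deubiquitinase; controls: no-proteasome and no-compound wells; read-out: % inhibition of Ub-AMC cleavage fluorescence; timing: 30 min preincubation with enzyme, 25 min cleavage at room temperature; signal: AMC fluorescence from Ub-AMC cleavage, excitation 355 nm, emission 460 nm; buffer or medium: Tris-HCl pH 7.4 plus ovalbumin, ATP-MgCl2, DTT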
MLL AF4-AF9 inh: inhibitors of AF4 peptide binding to AF9, primary screen, biochemical, AlphaScreen, biotin-AF4 peptide, FLAG-AF9, single point. Protein AF-9 (Homo sapiens), P42568. inhibition, % at 10 µM. actives 0.47% (n = 350,000);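 active = every replicate reaching a set inhibition limit, whatever the replicate mean, cut at about 25% in these data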;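 also: 0% = plate neutral control median and 100% = total signal loss; the record names both 10 and 1 µM as test concentration; the first replicate is given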
Target sequence (P42568 whole entry, looked up): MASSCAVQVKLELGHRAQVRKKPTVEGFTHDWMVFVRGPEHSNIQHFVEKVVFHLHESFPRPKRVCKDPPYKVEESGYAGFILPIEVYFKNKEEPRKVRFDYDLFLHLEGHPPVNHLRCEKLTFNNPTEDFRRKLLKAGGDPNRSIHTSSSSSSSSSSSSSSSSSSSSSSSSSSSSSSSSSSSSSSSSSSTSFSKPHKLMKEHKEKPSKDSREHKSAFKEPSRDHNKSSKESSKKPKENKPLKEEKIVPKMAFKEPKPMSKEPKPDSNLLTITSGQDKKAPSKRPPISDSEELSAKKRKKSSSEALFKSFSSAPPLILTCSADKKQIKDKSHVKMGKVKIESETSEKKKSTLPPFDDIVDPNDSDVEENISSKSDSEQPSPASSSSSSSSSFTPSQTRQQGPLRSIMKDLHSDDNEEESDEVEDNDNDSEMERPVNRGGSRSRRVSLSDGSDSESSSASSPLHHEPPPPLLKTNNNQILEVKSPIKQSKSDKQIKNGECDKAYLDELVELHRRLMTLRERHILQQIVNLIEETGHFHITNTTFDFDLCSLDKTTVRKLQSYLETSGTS
T cruzi repl: inhibitors of intracellular T. cruzi growth, primary screen, luminescence, NIH3T3 host cells | T. cruzi beta-gal in NIH3T3, 90 h | inhibition, % (no concentration beside the values) | actives 1.4% (n = 300,000);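 active = mean inhibition across valid replicates above about 55%, limit read from the data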;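 also: signal also drops with host cell toxicity which is not excluded here; 0% = plate median of DMSO wells and 100% = zero luminescence signal; higher percent means less beta-gal luminescence so fewer parasites; stock transfer was 50 nL into about 50 µL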
E coli growth: E. coli growth inhibition, primary screen, OD600. Escherichia coli growth, 23 h; stronger effect = lower value. OD600 absorbance (test concentration not listed). actives 0.21% (n = 330,000);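 active = OD600 absorbance below the run mean of sample wells minus 3.6 SD, in any replicate, cut at about 0.56 in these data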;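 also: stock transfer was 300 nL into about 60 µL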
FGF22 binding: binders of human FGF22 protein, primary screen, FGF22 synaptogenesis inhibitor project, biophysical, thermal shift, single point; Fibroblast growth factor 22 (Homo sapiens), Q9HCT0; AID 651658, 2012; recombinant FGF22 thermal shift, SYPRO orange fluorescence; percent of sucrose octasulfate shift, DMSO zero; actives 1.5% (n = 340,000); calls only at 9.99 µM;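 active = melting point raised past a set limit in the mean and every replicate; three in four hits are not shown here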
Target sequence (Q9HCT0 whole entry, looked up): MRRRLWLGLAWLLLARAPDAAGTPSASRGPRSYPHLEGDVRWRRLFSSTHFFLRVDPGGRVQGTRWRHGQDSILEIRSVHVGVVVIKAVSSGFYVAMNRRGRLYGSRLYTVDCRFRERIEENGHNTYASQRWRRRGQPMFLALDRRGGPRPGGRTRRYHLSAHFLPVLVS
Beta cell apopt: inhibitors of cytokine-induced beta cell apoptosis, primary screen, luminescence. INS-1E cytokine-induced death, ATP luminescence, 48 h; percent of positive-control rescue, neutral wells zero. protection from apoptosis, % (no concentration beside the values). actives 0.8% (n = 300,000);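 active = all replicates at 75% or more, or half of them and the mean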;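 also: 0% = cytokine-treated negative control wells and 100% = positive control rescue; higher means more ATP so stronger rescue from cytokine killing; wells of about 40 µL received 100 nL stock; the first replicate is given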
rRNA inh HTS OD600: further read-out of rRNA inh HTS, marked with its call; OD600 change, %; measured here: OD600 growth;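 optical density of the mix in the first replicate; 0 = DMSO median and -100 = no signal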
rRNA inh HTS RFP: recorded beside rRNA inh HTS, whose call it bears; RFP signal change, %; measured here: RFP humanized mutant strains;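 first replicate; 0 = DMSO median and -100 = no signal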
* hit, by the source's call; i = inactive; x = not tested or not shown. A portion of the library. The share of hits here may be higher or lower than overall.

SMILES | A1 inh | rRNA inh HTS | rRNA inh HTS OD600 | rRNA inh HTS RFP | UCH37 DUB inh | MLL AF4-AF9 inh | T cruzi repl | E coli growth | FGF22 binding | Beta cell apopt
CN(Cc1nccs1)C(=O)c1ccc(OC2CCN(CCc3ccccc3)CC2)cc1 | 1.6 | 3.7 | -7.6 | -1.1 | 0.0 | -3.4 | 13.7 | 0.651 | i | -0.4
C/C(CC(=O)Nc1cc(C)ccn1)=N\NC(=O)c1ccncc1 | -0.6 | 23.9 | 14.7 | 4.5 | x | -0.8 | 17.1 | x | i | -13.8
CC1=C(C(=O)OC(C)C)C(c2ccc(N(C)C)cc2)C2=C(CC(C)(C)CC2=O)N1 (centres undefined) | 1.8 | x | x | x | 2.0 | x | -8.5 | 0.713 | x | 1.1
Brc1ccccc1OCCCN1CCOCC1 | -0.4 | x | x | x | 2.6 | x | 15.0 | 0.717 | x | -4.8
CCCN1CCN(C(=S)Nc2ccc3nc(N4CCN(CC)CC4)cc(C)c3c2)CC1 | 1.0 | -2.4 | -2.2 | -15.3 | 7.7 | 6.7 | 42.3 | 0.694 | i | -7.9
O=C(NC(=S)Nc1ccc(CN2CCOCC2)cc1)c1ccccc1[N+](=O)[O-] | 0.6 | 0.2 | 3.5 | -1.0 | 2.6 | 1.9 | -4.7 | 0.64 | i | -3.0
Cc1cccc(C)c1NC(=O)CNC(=O)c1c(C)nn(-c2ccccc2)c1C | 0.1 | 5.9 | -0.7 | 0.5 | 0.5 | 1.3 | -5.2 | 0.654 | i | 0.3
N#Cc1c(-c2ccccc2)nc(SCc2nc(N)nc(N3CCCCC3)n2)[nH]c1=O | -0.2 | x | x | x | 1.0 | x | -0.2 | 0.703 | x | -2.8
CCOc1cc(-c2cc(-c3ccc(OC)cc3)nc(N)c2C#N)ccc1O | -0.6 | -15.0 | -1.3 | 0.3 | -102.6 | x | 3.2 | 0.703 | x | -5.8
CCCS(=O)(=O)N1CCN(C(=O)c2cccnc2)CC1 | -0.7 | x | x | x | 2.8 | x | 11.5 | 0.72 | x | -3.9
COc1ccc(C(=O)NCc2ccccc2CN2CCCC2)cc1S(=O)(=O)N1CCOCC1 | x | 4.8 | 8.9 | 2.5 | 1.4 | -5.8 | x | 0.691 | i | x
CC(/C=N/n1c(C2CCCCC2)n[nH]c1=S)=C\c1ccccc1 | 0.0 | -8.1 | -8.9 | -7.0 | x | x | 35.2 | x | x | 17.4
COc1cccc(OC(=O)c2cc3ccccc3oc2=O)c1 | 0.8 | 5.3 | 8.0 | -2.3 | -9.1 | -2.8 | -12.4 | 0.705 | i | -2.6
Cc1noc(C)c1S(=O)(=O)N1CCC(C(=O)NC2CCCc3ccccc32)CC1 (centres undefined) | 0.8 | x | x | x | 6.6 | x | -9.2 | 0.736 | x | -2.8
CC(C)(C)C(=O)Nc1nc(=S)ss1 | 1.6 | x | x | x | 8.6 | x | 3.1 | 0.7 | x | 6.1
CCN(CC)C(=O)CSc1nc(C)cc(C)n1 | 0.3 | 9.0 | 8.6 | -0.8 | 2.3 | -1.8 | -9.7 | 0.648 | i | 17.9
Cc1[nH]c2ccccc2c1CCN(Cc1cccnc1)C(=S)NC(C)(C)C | -0.4 | 8.7 | 6.3 | 0.9 | 4.8 | 14.6 | 48.8 | 0.67 | i | -9.8
O=C(NCC(=O)N(c1ccccc1)C(C(=O)NC1CCCC1)c1ccncc1)c1cccs1 (centres undefined) | 0.1 | 7.5 | 14.3 | -0.4 | 3.4 | -7.6 | -1.4 | 0.664 | i | -2.9
O=C(CN1C(=O)c2cccc([N+](=O)[O-])c2C1=O)OCC(=O)N1CCCCC1 | -0.5 | 10.6 | -0.2 | 5.4 | 1.2 | -1.3 | -11.6 | 0.651 | i | 2.6
COc1cc(CN(C)Cc2cccc3ccccc23)cc([N+](=O)[O-])c1O | 0.8 | 3.3 | 1.5 | -1.3 | 4.5 | 1.6 | -1.6 | 0.71 | i | -4.2
CC1CC(C)CN(C(=O)COC(=O)c2ccc3ncsc3c2)C1 (centres undefined) | -0.4 | -1.5 | -3.5 | -2.2 | 3.6 | 0.5 | x | 0.673 | i | -9.1
COc1ccc(NC(=O)CSc2nc3[nH]c(=O)[nH]c(=O)c3s2)cc1OC | 0.0 | 4.5 | 2.8 | -2.1 | 14.3 | -4.7 | -7.6 | 0.679 | i | -6.8
CCOc1cc(CNCc2cccnc2)ccc1OCC(=O)NC(C)(C)C | 0.2 | 0.9 | 4.9 | -0.9 | 3.3 | 0.5 | 28.8 | 0.655 | i | 0.6
Fc1ccccc1OCCCn1ccnc1 | -0.3 | 3.9 | 5.2 | -2.2 | 1.6 | -3.5 | -2.7 | 0.699 | i | -5.9
Cc1cc(C)cc(N(CC(=O)NCc2ccco2)C(=O)CCC(=O)Nc2nccs2)c1 | -0.4 | 6.9 | 10.1 | -1.1 | 1.3 | -1.0 | 14.7 | 0.7 | i | -0.2
CN(C)c1ccc(CNCc2cccnc2)cc1 | -0.3 | 19.6 | 15.7 | 0.0 | 8.0 | 3.1 | -6.0 | 0.64 | i | -3.6
CCOc1cc(N2CCOCC2)c(OCC)cc1NC(=O)Cc1cccc2ccccc12 | -0.7 | x | x | x | -1.3 | x | 27.6 | 0.782 | x | x
O=C(COC(=O)c1ccc(S(=O)(=O)NCc2ccco2)cc1)NC1CCCCC1 | -1.6 | x | x | x | 0.3 | x | -11.4 | 0.747 | x | -7.8
COc1ccccc1NC(=O)C[n+]1ccccc1 | -0.2 | 12.3 | 10.8 | -4.5 | 3.3 | -0.9 | 2.6 | 0.697 | i | -5.5
Cc1ccc(C2(O)CN(c3ccccc3C)C3=[N+]2CCS3)cc1 (centres undefined) | 0.7 | x | x | x | 4.1 | x | 1.1 | 0.711 | x | -5.6
O=C(CCc1nc(-c2ccc(F)cc2)no1)NCc1ccccc1CN1CCOCC1 | 2.4 | -6.3 | 0.6 | 3.7 | 0.5 | -0.2 | x | 0.633 | i | 0.3
COc1cc(S(=O)(=O)N2CCCCC2)ccc1NC(=O)c1ccccc1Cl | 0.3 | -9.9 | -0.8 | 5.2 | -0.3 | 6.2 | 13.9 | 0.654 | i | -1.6
CCOc1ccc(NC(=O)CSc2nc3ccccc3nc2N2CCOCC2)cc1 | -0.2 | -1.6 | 4.3 | -2.8 | 2.2 | -0.7 | 30.0 | 0.729 | i | -2.7
O=C(O)CC(NC(=O)Nc1ccccc1)c1ccc(OC2CCCC2)cc1 (centres undefined) | -0.5 | 9.8 | -7.3 | 0.0 | 0.7 | -1.4 | -2.9 | 0.701 | x | x
Cc1cc(N2CCN(c3ccccc3)CC2)nc(N)n1 | 0.3 | x | x | x | 1.5 | x | 3.7 | 0.65 | x | 0.7
COc1cccc(CNS(=O)(=O)c2cn(C)cn2)c1 | 1.5 | x | x | x | x | x | -11.6 | 0.708 | x | -5.8
COc1cccc(NC(=O)CN(C)C(=O)CSCc2nc3scc(-c4cccs4)c3c(=O)[nH]2)c1 | -1.1 | -11.8 | -30.0 | 3.7 | 10.5 | -4.8 | -4.8 | 0.68 | i | 1.5
Cc1ccc(-n2c(SCC(=O)Nc3ccc4c5c(cccc35)CC4)nc(O)cc2=O)cc1 | -0.2 | 7.9 | 9.1 | 32.0 | -0.1 | 1.5 | -20.2 | 0.674 | i | -8.4
COC(=O)Nc1nnc(Cc2ccc(Cl)cc2)s1 | 1.2 | x | x | x | -1.9 | x | -27.7 | 0.648 | x | -3.5
Cc1ccc(S(=O)(=O)Nc2ccc3[nH]ccc3c2)cc1 | 0.0 | -6.0 | -7.1 | 5.5 | 4.7 | 0.7 | -2.8 | 0.69 | i | x
CCN1C(=O)/C(=C\C(=O)c2cccs2)c2cc(Br)ccc21 | 0.1 | 5.7 | 10.3 | -1.1 | 4.0 | 37.4* | 6.6 | 0.664 | i | 7.2
COc1ccc(S(=O)(=O)NCc2ccc(C(=O)NCCCN3CC(C)CC(C)C3)cc2)cc1 (centres undefined) | 0.2 | 2.2 | 5.6 | -1.7 | 3.8 | 0.9 | 38.5 | 0.696 | i | -1.8
CC(=O)c1cccc(NC(=O)CCNC(=O)c2ccccc2Cl)c1 | 0.0 | 5.3 | 1.9 | -2.3 | 0.9 | 0.6 | 0.7 | 0.697 | i | -5.0
Cc1ccc(S(=O)(=O)NC(CC(=O)NCC2CCCO2)c2ccccc2)cc1 (centres undefined) | 0.1 | 2.8 | -2.0 | -4.4 | 3.6 | -2.2 | -1.0 | 0.701 | i | -2.4
CCN1CCN(c2cc(C)c3cc(NC(=S)N4CCCCC4)ccc3n2)CC1 | 0.4 | -5.3 | -7.3 | 8.1 | -3.9 | 18.7 | 57.7* | 0.703 | i | -1.3
Cn1c(SCC(=O)Nc2ccccc2F)nnc1-c1cccs1 | -0.5 | -0.2 | 2.6 | -1.1 | 5.8 | 2.3 | -2.5 | 0.692 | i | 0.3
O=C(NCc1ccc(F)cc1)C1CC(=O)N(C2CCCC2)C1 (centres undefined) | 1.1 | 6.5 | 7.9 | -2.9 | 4.4 | -2.4 | x | 0.668 | i | -2.6
CC1CCCCC1NC(=O)c1ccc(S(=O)(=O)N2CCN(C)CC2)cc1 (centres undefined) | 0.4 | 2.3 | -0.5 | 0.2 | 1.3 | 1.1 | -15.6 | 0.641 | i | -0.2
CCNC(=O)C(=O)NCCc1ccc(Cl)cc1 | 0.3 | x | x | x | 1.2 | x | -5.4 | 0.674 | x | -6.8

6 compounds already listed, arranged by length of the SMILES, falling.
SMILES | A1 inh | rRNA inh HTS | rRNA inh HTS OD600 | rRNA inh HTS RFP | UCH37 DUB inh | MLL AF4-AF9 inh | T cruzi repl | E coli growth | FGF22 binding | Beta cell apopt
COc1ccc(S(=O)(=O)NCc2ccc(C(=O)NCCCN3CC(C)CC(C)C3)cc2)cc1 (centres undefined) | 0.2 | 2.2 | 5.6 | -1.7 | 3.8 | 0.9 | 38.5 | 0.696 | i | -1.8
Cc1ccc(S(=O)(=O)NC(CC(=O)NCC2CCCO2)c2ccccc2)cc1 (centres undefined) | 0.1 | 2.8 | -2.0 | -4.4 | 3.6 | -2.2 | -1.0 | 0.701 | i | -2.4
CCN1CCN(c2cc(C)c3cc(NC(=S)N4CCCCC4)ccc3n2)CC1 | 0.4 | -5.3 | -7.3 | 8.1 | -3.9 | 18.7 | 57.7* | 0.703 | i | -1.3
CCN1C(=O)/C(=C\C(=O)c2cccs2)c2cc(Br)ccc21 | 0.1 | 5.7 | 10.3 | -1.1 | 4.0 | 37.4* | 6.6 | 0.664 | i | 7.2
CC(=O)c1cccc(NC(=O)CCNC(=O)c2ccccc2Cl)c1 | 0.0 | 5.3 | 1.9 | -2.3 | 0.9 | 0.6 | 0.7 | 0.697 | i | -5.0
O=C(NCc1ccc(F)cc1)C1CC(=O)N(C2CCCC2)C1 (centres undefined) | 1.1 | 6.5 | 7.9 | -2.9 | 4.4 | -2.4 | x | 0.668 | i | -2.6
